VDR inhibitor – blocks the human vitamin D receptor; VDR-SRC2-3 peptide fluorescence polarization, 2 h; 0.93% of 400,000 active; Potency, µM, without a hit: max response, negative = inhibition, actives largely listed as inhibitors; active = well fitted inhibition curve with a large enough effect; inconclusive = small, poorly fitted or top-dose-only effect, or another doubt; inactive = no such curve, though single readings can be large or run the other way; also: series mostly up to about 120 µM
Target sequence (P11473 whole entry, looked up): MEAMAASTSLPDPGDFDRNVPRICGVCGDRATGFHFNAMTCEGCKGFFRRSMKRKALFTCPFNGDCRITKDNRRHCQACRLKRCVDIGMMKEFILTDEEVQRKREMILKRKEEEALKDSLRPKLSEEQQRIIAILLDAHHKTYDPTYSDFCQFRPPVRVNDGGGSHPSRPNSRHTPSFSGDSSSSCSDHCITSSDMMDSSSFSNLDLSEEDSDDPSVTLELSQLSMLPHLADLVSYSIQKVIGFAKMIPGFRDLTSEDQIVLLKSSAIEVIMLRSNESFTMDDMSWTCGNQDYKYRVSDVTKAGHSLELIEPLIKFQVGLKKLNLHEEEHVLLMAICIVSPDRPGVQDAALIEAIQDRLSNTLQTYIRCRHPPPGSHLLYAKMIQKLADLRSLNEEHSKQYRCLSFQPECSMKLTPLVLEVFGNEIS
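Reagent solutions, kept cold and dark, are dispensed first; compounds are then pinned in at 23 nl, plates briefly spun, and incubated 2 h at ambient temperature. Inhibition of VDR–SRC2-3 peptide binding is read by fluorescence polarization.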
The depositor's hits bear a star; & = joins results of further samples; [ ] = another dose, or the depositor's remark. % is scaled to controls: 0 for no effect and ±100 for the full control effect; potency is read from the fitted curve at half-maximal effect.

A first look:
`Cc1ccc(N2CC(=O)N(NC(=O)Nc3ccc(Cl)c(Cl)c3)CC2=O)cc1` gave VDR inhibitor -29%.
For COc1ccc(N2CCN(C(=O)[C@H](C)N3C(=O)C4CC=CCC4C3=O)CC2)cc1 (some centres undefined) the results were VDR inhibitor 12%.
`COc1ccccc1N(C(=O)CNC(=O)c1ccco1)C(C(=O)NCC1CCCO1)c1ccccc1` (centres undefined) gave VDR inhibitor 4%.
`COc1ccc(-n2nc(C(=O)N3CCN(c4cccc(C)c4C)CC3)c3c4ccccc4n(C)c3c2=O)cc1Cl` gave VDR inhibitor 7%.

All compounds of this part, from the first entry:
`Cc1ccc(N2CC(=O)N(NC(=O)Nc3ccc(Cl)c(Cl)c3)CC2=O)cc1` gave VDR inhibitor -29%.
For COc1ccc(N2CCN(C(=O)[C@H](C)N3C(=O)C4CC=CCC4C3=O)CC2)cc1 (some centres undefined) the results were VDR inhibitor 12%.
`COc1ccccc1N(C(=O)CNC(=O)c1ccco1)C(C(=O)NCC1CCCO1)c1ccccc1` (centres undefined) gave VDR inhibitor 4%.
`COc1ccc(-n2nc(C(=O)N3CCN(c4cccc(C)c4C)CC3)c3c4ccccc4n(C)c3c2=O)cc1Cl` gave VDR inhibitor 7%.
`Cc1cc(C)c2c(c1)SC1=NC(c3ccccc3)(C(F)(F)F)NC(=O)N12` (centres undefined) gave VDR inhibitor 2%.
CC(C)=CC(=O)Nc1ccc(S(=O)(=O)Nc2onc(C)c2C)cc1 was read as VDR inhibitor -10%.
For O=c1[nH][nH]cc1C=Nc1ccc(Cl)cc1Cl the results were VDR inhibitor 22%.
Screening COc1cccc(-n2c(=O)c3sc4ccccc4c3n(CC(=O)Nc3ccc(F)cc3F)c2=O)c1 returned VDR inhibitor -29%.
Screening CCOC(=O)c1ccc(NC(=S)NCCCn2ccnc2)cc1 returned VDR inhibitor 14%.
CCCCN(CC)S(=O)(=O)c1ccc(C(=O)Nc2nnc(CSC)o2)cc1 was read as VDR inhibitor 6%.
`CC(C)CSC1=NSC2=NC(=O)/C(=C\c3coc4ccccc4c3=O)C(=N)N12` gave VDR inhibitor 79µM*.
For CC(=O)n1cc([C@H]2C=C(C(=O)O)O[C@@H](OCCCCO)C2)c2ccccc21 the results were VDR inhibitor -20%.
For O=C(O)c1ccc2c(c1)C(=O)N(c1ccccc1-c1ccccc1)C2=O the results were VDR inhibitor -2%.
`Cc1ccc(C(=O)N2CCN(c3ccc(F)cc3)CC2)cc1S(=O)(=O)N1CCCCC1` gave VDR inhibitor -5%.
`O=C(/C=C/c1cccc([N+](=O)[O-])c1)OCC(=O)N1CCN(C(=O)c2ccco2)CC1` gave VDR inhibitor 0%.
c1ccc2c(c1)Oc1ccccc1S2 was read as VDR inhibitor 20%.
Cc1ccc(C(OCC(O)CNC(C)c2ccccc2)c2ccccc2)cc1 (centres undefined) was read as VDR inhibitor -13%.
CCOC(=O)c1c(NC(=O)c2ccccc2C)sc2c1CCCC2 was read as VDR inhibitor 79µM*.
O=C(/C=C/c1ccc(Cl)cc1)NC(=S)Nc1ccccc1C(=O)O was read as VDR inhibitor -22%.
`CCn1ncc(Cl)c1C(=O)NC(C)c1ccccc1` (centres undefined) gave VDR inhibitor -4%.

Overlap with the part before: 2 entries, then new ones.
O=C(/C=C/c1ccc(Cl)cc1)NC(=S)Nc1ccccc1C(=O)O was read as VDR inhibitor -22%.
`CCn1ncc(Cl)c1C(=O)NC(C)c1ccccc1` (centres undefined) gave VDR inhibitor -4%.
COc1ccc(/C=N\NC(=O)COc2ccccc2)c(C(=O)O)c1OC was read as VDR inhibitor -18%.
`COc1ccc2nc(N/C(N)=N/C(=S)Nc3cccc(C)c3)nc(C)c2c1` gave VDR inhibitor -23%.
`C[C@H]1OC(OC2C(O)[C@@H](O)C(OC3C(O)[C@@H](O)C(O)O[C@@H]3CO)O[C@@H]2CO)[C@H](O)C(O)C1N[C@H]1C=C(CO)[C@@H](O)[C@H](O)C1O` (some centres undefined) gave VDR inhibitor 14%.
Screening CC1(C)C2CC=C(/C=N/NC(=O)c3ccccc3Br)C1C2 (centres undefined) returned VDR inhibitor 8%.
For O=C(NCC(c1cccs1)N1CCOCC1)c1cc(=O)[nH]c2ccccc12 (centres undefined) the results were VDR inhibitor -11%.
Cc1ccccc1NC(=O)CSCCN1C(=O)c2ccccc2C1=O was read as VDR inhibitor 22%.
For CCOC(=O)CSc1ccc2nnc(-c3cccs3)n2n1 the results were VDR inhibitor 0%.
CC1(C)CC(N2CCC(=O)NC2=S)CC(C)(C)N1 was read as VDR inhibitor -4%.
Screening CNC(=O)C(=O)Nc1c(O)c2ccccc2[nH]c1=O returned VDR inhibitor 18%.
`COCCCn1c(=O)/c(=C\c2ccc(OC(F)F)c(OC)c2)s/c1=C(/C#N)C(N)=O` gave VDR inhibitor -5%.
For C=CCNC(=S)N1CCN(CCN=CC2=C(O)CC(c3ccco3)CC2=O)CC1 (centres undefined) the results were VDR inhibitor -16%.
`Nc1ccccc1OCCOCCOCCOc1ccccc1N` gave VDR inhibitor -8%.
Nc1cc(OC(=O)c2ccc(F)cc2)nn1S(=O)(=O)c1ccc(F)cc1 was read as VDR inhibitor -18%.
`S=C1NC[C@H](c2ccccc2)N1CC1CCCCC1` gave VDR inhibitor -4%.
COc1ccc(C(C(=O)NC2CCCC2)N(Cc2ccccc2)C(=O)CNC(=O)c2ccco2)cc1 (centres undefined) was read as VDR inhibitor 8%.
`Cc1cccc(-c2nsc(SCC(=O)Nc3ccc4c(c3)OCO4)n2)c1` gave VDR inhibitor -11%.
COc1ccc(S(=O)(=O)N2CN3CCN(C3)C2)cc1OC was read as VDR inhibitor -5%.
Screening O=C(OCc1c(Cl)cccc1Cl)c1cccnc1 returned VDR inhibitor -13%.
O=C(O)CCC(=O)Nc1ccc(Br)cc1C(=O)c1ccc(Cl)cc1 was read as VDR inhibitor 6%.
`O=C(CN1CCN(Cc2ccccc2)CC1)c1ccc(Br)cc1` gave VDR inhibitor inconclusive.
CC(CCc1ccc(O)cc1)N1CCC(Oc2ccc(C(=O)N3CCCC3)cc2)CC1 (centres undefined) was read as VDR inhibitor 1%.
`COc1ccc(NC(=S)Nc2ccc3cn[nH]c3c2)cc1` gave VDR inhibitor -12%.
For Cc1ccc(N2C(=O)C3C4C=CC(CC4)C3C2=O)cc1[N+](=O)[O-] (centres undefined) the results were VDR inhibitor -9%.
`CCOC(=O)N1CCC(n2c(=S)[nH]c3cc(OC)c(OC)cc3c2=O)CC1` gave VDR inhibitor 6%.
Screening N/C(CSc1ncccc1C(F)(F)F)=N\O returned VDR inhibitor -5%.
For CC(C)(C)c1ccc(CNc2cc(N3CCOCC3)ccc2[N+](=O)[O-])cc1 the results were VDR inhibitor inconclusive.
`Cc1cc(NC(=O)c2ccc(Cl)c([N+](=O)[O-])c2)no1` gave VDR inhibitor 7%.
COc1ccc2c(c1)c1c(c(=O)n(Cc3ccccc3)c(=O)n1CC(=O)NCc1ccccc1Cl)n2C was read as VDR inhibitor 15%.
Screening COc1cccc(C2/C(=C(/O)c3cnn(-c4ccccc4)c3C)C(=O)C(=O)N2CCN(C)C)c1 (centres undefined) returned VDR inhibitor -11%.
`O=C(Cc1cccs1)Nc1cccnc1` gave VDR inhibitor 17%.
Screening Cc1oc2ccc(NS(=O)(=O)c3ccc(F)cc3)cc2c1C(=O)O returned VDR inhibitor -3%&-2%.
CCOC(=O)C1(CCCc2ccccc2)CCN(C(=O)[C@@H]2C[C@@H](C)NC(=S)N2)CC1 was read as VDR inhibitor -14%.
For CC(=O)Nc1cccc(NC(=O)CSc2nc(=O)n(Cc3ccccn3)c3c2CCC3)c1 the results were VDR inhibitor 75%[activator].
Screening Cc1ccccc1NC(=S)NCCC(c1ccccc1)c1ccccc1 returned VDR inhibitor -18%.
Cc1ccc(Cn2c(SCC(=O)N/N=C/c3ccc(C)o3)nc3ccccc32)cc1 was read as VDR inhibitor -8%.
For CC(=O)c1ccc(NC(=O)C[n+]2ccccc2)cc1 the results were VDR inhibitor 15%.
CN(C1CCCCC1)S(=O)(=O)Cc1ccccc1 was read as VDR inhibitor -12%.
Cc1ccc(OCCOCCn2c(-c3ccc(Cl)cc3)nc3ccccc3c2=O)cc1 was read as VDR inhibitor -28%.
O=C(Nc1ccc(F)c(Cl)c1)C1CC(=O)N(Cc2ccccc2)C1 (centres undefined) was read as VDR inhibitor -15%.
O=C(N1CCN(c2ccccc2)CC1)C12CC3CC(CC(C3)C1)C2 was read as VDR inhibitor 1%.
C/C(=N\NC(=O)c1cc(C)nc2ccc(C)cc12)c1ccncc1 was read as VDR inhibitor -24%.
`COC(=O)c1nn(-c2ccccc2)c(=O)cc1O` gave VDR inhibitor -1%.
`CC(C)NS(=O)(=O)c1ccc(CCC(=O)N2CCOCC2)cc1` gave VDR inhibitor 1%.
Screening O=C(CSc1nnnn1-c1ccc2c(c1)OCCO2)N1CCc2ccccc21 returned VDR inhibitor -1%.
COc1cccc(N2CCN(C(=S)Nc3cccc(C)c3)CC2)c1 was read as VDR inhibitor -15%.
For Cc1ccccc1-c1noc(-c2ccc(N3CCN(c4ccccc4)CC3)c([N+](=O)[O-])c2)n1 the results were VDR inhibitor 0%.
Brc1cnc2nc(SCc3nc4ccccc4[nH]3)[nH]c2c1 was read as VDR inhibitor 2%.
`Cc1nc(C)c(-c2csc(Nc3ccc(S(N)(=O)=O)cc3)n2)s1` gave VDR inhibitor 4%.
`Cc1cccc(NC(=O)c2cc(-c3cccnc3)nc3c(C)cccc23)n1` gave VDR inhibitor 4%.
O=C(NN=C(c1ccccc1)c1ccccn1)c1ccccc1 was read as VDR inhibitor 0%.
COC(=O)c1ccccc1NC(=O)CN1CCC(n2nnc3cc(C(F)(F)F)ccc32)CC1 was read as VDR inhibitor -8%.
`Nc1ccc2c(c1)C(=O)c1ccccc1-2` gave VDR inhibitor 7%.
COc1ccccc1NC(=O)C1CCN(S(=O)(=O)c2ccc3[nH]c4c(c3c2)CCCCC4)CC1 was read as VDR inhibitor 2%.
For Cc1cccc(N2CCN(C(=S)Nc3ccc4nc(N5CCOCC5)cc(C)c4c3)CC2C)c1 (centres undefined) the results were VDR inhibitor -20%.
For c1ccc(-c2cnnc(-c3ccccn3)n2)cc1 the results were VDR inhibitor -17%.
Screening Cc1cc(/C(N)=N/OC(=O)c2cccc(Cl)c2)no1 returned VDR inhibitor -1%.
For CCC(Oc1ccccc1)C(=O)Nc1ccccc1N1CCCC1 (centres undefined) the results were VDR inhibitor -8%.
For COc1ccc2nc(Nc3sc4c(c3C(N)=O)CCCC4)sc2c1 the results were VDR inhibitor inconclusive.
Screening CSc1cccc(-n2ccc(=O)c(C)c2C)c1 returned VDR inhibitor -2%.
For N#C/C(=C\c1ccc(OCc2ccc(C(=O)O)cc2)cc1)C(=O)N1CCOCC1 the results were VDR inhibitor -10%.
`Cn1c(CSc2nc3ccccc3n2C)nc2ccccc21` gave VDR inhibitor 4%.
`CN(C)Cc1ccccc1-c1ccc2ncnc(NCc3ccccc3)c2c1` gave VDR inhibitor 5%.
CCc1ccc(NCc2cc3cc(OC)c(OC)cc3n(CC(=O)Nc3ccc(F)cc3)c2=O)cc1 was read as VDR inhibitor -6%.
For Cc1ccc(Cl)cc1N1CCN(S(=O)(=O)c2ccc3c(c2)OCCO3)CC1 the results were VDR inhibitor -7%.
Screening Cc1cccc(-c2nc(SCC(=O)N3CCc4ccccc43)c3c(=O)n(C)c(=O)n(C)c3n2)c1 returned VDR inhibitor 10%.
Screening CCOC(=O)c1cn(C2CC2)c2c(F)c(F)c(F)cc2c1=O returned VDR inhibitor 2%.
Cc1cc(N2CCN(c3ccc([N+](=O)[O-])c4cccnc34)CC2)c2ccccc2n1 was read as VDR inhibitor -28%.
`Nc1ncc2[nH]c(N)nc2n1` gave VDR inhibitor 7%.
Screening O=C(/C=C/c1ccccc1Cl)NNC(=O)c1ccncc1 returned VDR inhibitor 9%.
Screening CCN1CCN(c2nc3c(c(=O)n(C)c(=O)n3C)n2CCSc2ncccn2)CC1 returned VDR inhibitor 0%.
`CN(C)CCOC(=O)c1ccc2c(c1)S(=O)(=O)c1ccccc1C2=O` gave VDR inhibitor -17%.
CCOc1cccc(-c2cc(C(=O)N3N=C(C)CC3(O)C(F)F)c3ccccc3n2)c1 (centres undefined) was read as VDR inhibitor -4%.
Screening CCOc1cc2c(C#N)c(N3CCCC3)nc(N)c2c(N)n1 returned VDR inhibitor 3%.
COc1cccc(C2CCCN2Cc2nc(-c3sccc3C)oc2C)c1 (centres undefined) was read as VDR inhibitor 15%.
Screening O=C(C1=C(O)C(=O)N(CCN2CCOCC2)C1c1ccc(Cl)cc1)c1cc2ccccc2o1 (centres undefined) returned VDR inhibitor -28%.
`N#C/C(=C/c1cccc([N+](=O)[O-])c1)C(=O)Nc1ccccc1O` gave VDR inhibitor inconclusive.
Screening COc1ccc2ccccc2c1CNC(C)CCc1ccccc1 (centres undefined) returned VDR inhibitor 12%.
`CC(C)(C)c1ccc(C(=O)Nc2ccc([N+](=O)[O-])cn2)cc1` gave VDR inhibitor -20%.
`CCOc1cc(-c2nc3ccccc3s2)ccc1O` gave VDR inhibitor -3%.

Among those listed so far, 8 contain an NH in an aromatic ring.
For O=c1[nH][nH]cc1C=Nc1ccc(Cl)cc1Cl the results were VDR inhibitor 22%.
For O=C(NCC(c1cccs1)N1CCOCC1)c1cc(=O)[nH]c2ccccc12 (centres undefined) the results were VDR inhibitor -11%.
Screening CNC(=O)C(=O)Nc1c(O)c2ccccc2[nH]c1=O returned VDR inhibitor 18%.
`COc1ccc(NC(=S)Nc2ccc3cn[nH]c3c2)cc1` gave VDR inhibitor -12%.
`CCOC(=O)N1CCC(n2c(=S)[nH]c3cc(OC)c(OC)cc3c2=O)CC1` gave VDR inhibitor 6%.
Brc1cnc2nc(SCc3nc4ccccc4[nH]3)[nH]c2c1 was read as VDR inhibitor 2%.
COc1ccccc1NC(=O)C1CCN(S(=O)(=O)c2ccc3[nH]c4c(c3c2)CCCCC4)CC1 was read as VDR inhibitor 2%.
`Nc1ncc2[nH]c(N)nc2n1` gave VDR inhibitor 7%.

A portion of the library; rates above refer to the full screens.
